Bioassay records as filed in PubChem BioAssay.
RGS16-Gao HTS: RGS16-Galphao interaction regulator (human); bead-based flow cytometry RGS16-Galphao binding, fluorescence; actives lie on both sides; binding response (% of control), % at 10 µM; hit rate 0.38% among 220,000; AID 1441;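 active = below 25% or above 175%, edge rows of some plates excepted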;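 also: Galphao activated by GDP with aluminum fluoride before binding; 100% = wells without compound and 0% = beads without RGS; some results beyond the cut were filed as inactive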
Target sequence (O15492 whole entry, looked up): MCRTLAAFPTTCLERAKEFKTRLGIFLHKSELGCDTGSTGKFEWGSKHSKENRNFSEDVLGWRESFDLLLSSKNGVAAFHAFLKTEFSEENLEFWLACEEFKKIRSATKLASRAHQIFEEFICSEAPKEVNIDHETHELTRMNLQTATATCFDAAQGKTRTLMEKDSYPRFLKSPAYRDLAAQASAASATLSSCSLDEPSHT
Target sequence (P09471 whole entry, looked up): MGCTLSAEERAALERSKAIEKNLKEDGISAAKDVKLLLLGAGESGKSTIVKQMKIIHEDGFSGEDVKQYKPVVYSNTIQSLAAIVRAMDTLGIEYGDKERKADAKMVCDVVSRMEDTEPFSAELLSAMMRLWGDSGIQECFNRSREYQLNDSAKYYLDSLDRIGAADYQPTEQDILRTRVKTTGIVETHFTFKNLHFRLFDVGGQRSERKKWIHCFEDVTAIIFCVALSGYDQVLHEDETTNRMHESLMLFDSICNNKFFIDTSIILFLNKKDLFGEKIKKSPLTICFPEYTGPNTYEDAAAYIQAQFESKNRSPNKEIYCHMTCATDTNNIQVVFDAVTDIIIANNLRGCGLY
INS promoter inh: TRM-6 insulin promoter activity inhibition; TRM-6 cells (human fetal islet line), insulin promoter-eGFP reporter, imaging; reporter expression induced with tamoxifen; inhibition, % at 2 µM; hit rate 0.9% among 130,000;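 active = inhibition above the mean plus 3 SD, with well images judged a real hit on visual review, cut at about 60% in these data, passing the limit was not always enough; inconclusive = inhibition over the cutoff but images rejected on review; inactive = inhibition not above the cutoff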
PKD1 kinase inh: PKD1 (human) kinase inhibition. hit rate 0.056% among 200,000. inhibition, %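 (about 10 µM by stock and volumes)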. AID 797. Q15139. PKD1 kinase fluorescence polarization assay;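 active = inhibition of 50% or more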;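 also: controls were vehicle for no effect and a reference inhibitor for full effect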
HSV augment: HSV replication enhancement. HSV replication augmentation in cells, fold increase. maximum fold increase. hit rate 0.005% among 220,000. AID 1956;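 active = peak rise of 1.5-fold or more in the series; inconclusive = self-fluorescent or not available for retest; tested in PC3 cells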;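 also: first round at 10 µM; read as green reporter fluorescence; hits show the peak of a series up to 25 µM; 1 = signal of infected wells without compound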
GALR2 ag: GALR2 (human) receptor agonism; O43603; hit rate 0.48% among 140,000; GALR2-expressing cells, agonist activation read-out; activation, %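 (tested at 5 µM)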;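 active = above mean plus 3 SD of all compounds, about 5% in these data, not always enough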;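 also: 0% = vehicle buffer wells and 100% = reference agonist at full effect; tested in CHO reporter cells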
Target sequence (O43603 whole entry, looked up): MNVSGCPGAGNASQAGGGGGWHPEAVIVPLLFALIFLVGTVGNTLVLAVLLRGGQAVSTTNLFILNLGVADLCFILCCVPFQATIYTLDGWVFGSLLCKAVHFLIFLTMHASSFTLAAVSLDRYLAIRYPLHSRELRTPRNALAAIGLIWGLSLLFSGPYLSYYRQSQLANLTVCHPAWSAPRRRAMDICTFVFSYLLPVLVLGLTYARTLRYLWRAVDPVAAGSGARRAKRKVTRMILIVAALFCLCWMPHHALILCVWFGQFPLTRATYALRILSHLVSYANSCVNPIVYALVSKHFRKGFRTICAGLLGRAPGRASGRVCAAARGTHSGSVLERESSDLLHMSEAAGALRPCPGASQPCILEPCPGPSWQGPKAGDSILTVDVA
INS promoter inh cell count: further read-out of INS promoter inh, marked with its call; normalized cell count, %; measured here: cell count, toxicity; reference of the scale not given here;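 cells exposed to compound for 48 h; stained nuclei by imaging scaled within each plate; lower means fewer cells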
HSV augment primary fold: further read-out of HSV augment, marked with its call; fold increase; compound at 10 µM; measured here: primary screen fold increase 10 uM; tested in PC3 cells;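 GFP signal in the first replicate; 1 = infected wells without compound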
* hit, by the source's call; i = inactive; u = inconclusive; x = not tested or not shown; & = joins results of further samples; [ ] = remark or other dose. Outcome played no part in choosing rows. About 1.3% of those tested had a hit in this group.

SMILES	RGS16-Gao HTS	INS promoter inh	INS promoter inh cell count	PKD1 kinase inh	HSV augment	HSV augment primary fold	GALR2 ag
Cn1c(=O)c2[nH]c(-c3cccnc3)nc2n(C)c1=O	98.9	-28.6	61.6	-0.6	i	0.89	-0.2
Cc1cc(C)c(C#N)c(N2CCN(Cc3ccc4c(c3)OCO4)CC2)n1	140.8	-71.4	82.8	-8.5	i	1.02	-2.0
Cc1ccc(NC(=O)Nc2nc3ccccc3s2)cc1NC(=O)Nc1nc2ccccc2s1	91.3	x	x	x	i	0.89	x
CC(=O)Nc1ccc(C(=O)Nc2ccc(S(=O)(=O)N3CCCC3)cc2)cc1	103.9	26.9	133.7	-0.9	i	1.07	-0.1
Cc1ccc([N+](=O)[O-])cc1N(CC(=O)N1CCCCC1)S(C)(=O)=O	107.2	x	x	-4.0	i	0.85	x
COc1ccc(CC(NC(=O)c2ccccc2)C(=O)NCC(=O)O)cc1 (configuration not stated)	103.2	x	x	-4.4	i	0.95	-0.6
CCOc1ccccc1-n1c(=S)sc2c(=O)n(-c3ccc(C)cc3)c(=S)[nH]c21	84.2	x	x	0.5	i	1.11	x
O=C(Nc1ccccc1-c1ccccc1)c1ccc(NC(=O)c2ccco2)cc1	96.4	-28.6	88.1	-2.0	i	0.96	-1.4
Cc1ccc(NC(=O)Cn2nc(C)c([N+](=O)[O-])c2C)cc1Cl	102.0	x	x	-8.2	i	0.85	x
O=[N+]([O-])c1cnccc1Nc1ccc(F)cc1	100.4	0.0	130.2	-4.2	i	1.03	-3.0
O=C(CC(Nc1cccc(Cl)c1Cl)C(=O)O)c1ccccc1 (configuration not stated)	102.7	38.9	119.2	-10.2	i	0.98	x
CC1CCC2(CC1)NC(=O)N(CC(=O)N1CCc3ccccc3C1)C2=O (configuration not stated)	98.7	26.7	117.5	-3.0	i	1.04	x
CCOC(=O)C1C(=O)NC(N2CCN(Cc3ccccc3)CC2)=NC1c1ccccc1 (configuration not stated)	106.9	8.3	122.9	3.2	i	1.01	-1.0
CC(C(=O)N1CCN(c2ccc([N+](=O)[O-])cc2)CC1)N1C(=O)C2CC=CCC2C1=O (configuration not stated)	104.1	x	x	0.0	i	1.06	x
CCc1nnc(NC(=O)CSc2nnc(CNc3ccc(OC)cc3)n2CC)s1	102.4	-10.5	98.7	10.5	i	1.03	x
C=CCn1c(SCC(=O)c2cc(C)n(CCOC)c2C)nc2sc(C)c(C)c2c1=O	111.2	x	x	3.4	i	0.93	-1.8
O=C(/C=C/c1ccccc1Cl)Nn1cnc2ccccc2c1=O	105.3	36.1	117.1	-9.0	i	0.87	0.6
O=C(Nc1ncc2c(n1)-c1ccccc1CC2)c1ccc(Cl)cc1	101.8	-64.3	112.9	-4.7	i	0.77	-3.0
Cc1cc(C(=O)NCC(=O)O)c(C)o1	95.8	6.2	158.0	4.2	i	0.93	-3.4
COCCn1nnnc1C(CC(C)C)N1CCN(c2cccc(OC)c2)CC1 (configuration not stated)	114.4	x	x	-5.9	i	0.92	0.3
Nn1cc(-c2ccccc2)nc1SCC(=O)Nc1ccc2c(c1)OCO2	91.4	3.2	140.2	-1.1	i	1	-1.7
CCCCC(=O)Nc1ccc2oc(-c3ccncc3)nc2c1	100.8	25.7	117.9	-3.1	i	0.9	-2.2
CCc1ccc(C2NC(=S)NC3=C2C(=O)CC(C)(C)C3)cc1 (configuration not stated)	101.9	x	x	-3.4	i	1	0.4
Cn1ncc2c(NCc3ccccc3)ncnc21	100.3&108.2	x	x	-3.3	i	0.98&0.98	-0.5
O=C1Cc2ccccc2C(c2ccc(Br)cc2)N1 (configuration not stated)	105.9	-20.0	88.8	-4.6	i	0.93	-2.2
COc1ccc2c(c1)[nH]c1c(=O)n(CCN(C)C)cnc12	180.1	10.0	85.7	-1.1	i	0.82	-0.3
CC(C)(C)n1cnnc1Sc1ncccc1[N+](=O)[O-]	102.2	x	x	x	i	0.9	x
COc1cc(/C=N/NC(=O)CCc2n[nH]c(=O)[nH]c2=O)ccc1O	100.9	x	x	0.3	i	1.05	-0.9
O=C(Nc1ccc(Br)cc1)C1CCN(C(=O)c2ccc(F)cc2)CC1	102.1	20.6	88.7	8.2	i	0.98	-0.1
CS(=O)(=O)N(CC(=O)NCc1ccc2c(c1)OCO2)C1CCCCC1	101.5	22.2	100.5	-6.1	i	1.02	x
Cc1cc(C)nc(SCc2ccc(C(=O)NN=C3CCCC3)cc2)n1	97.1	33.3	92.6	-4.6	i	1	x
O=S(=O)(NC1CC1)c1ccc(S(=O)(=O)N2CCCC3(CCCCC3)C2)cc1	104.1	-12.5	102.8	-0.8	i	0.88	-0.3
COc1ccc(C2=C(Nc3ccc(F)cc3)c3ccccc3C2=O)cc1	108.7	41.7	131.7	-3.0	i	0.97	-2.6
COCCn1c(-c2ccc(-c3ccccc3Cl)o2)nc2c1c(=O)[nH]c(=O)n2CC(C)C	98.9	x	x	3.0	i	1.01	-0.1
CCc1nnc(NC(=O)c2ccc3c(=O)n4c(nc3c2)CCCCC4)s1	113.7	x	x	x	i	0.94	x
C/C(=N\NC(=O)c1cc(C(C)C)[nH]n1)c1ccco1	190.4*[activator]	0.0	86.8	6.7	i	0.94	-1.3
O=C(COC(=O)CC1c2ccccc2CCN1S(=O)(=O)c1ccc(F)cc1)Nc1ccccc1 (configuration not stated)	97.6	-14.7	103.5	3.7	i	1.01	-1.6
CCCc1nc2sc3c(c2c(=O)n1NC(=O)CCC(=O)O)CCCC3	99.6	-7.9	167.7	1.4	i	0.91	-1.0
CC(C)(C)NS(=O)(=O)c1ccc(CCC(=O)N2CCOCC2)cc1	101.8	21.7	118.2	-0.1	i	1	-1.4
CCOC(=O)CSC1=C(C#N)C(C)C2=C(CCCC2=O)N1 (configuration not stated)	98.3	-18.2	113.8	4.6	i	0.87	-1.1
CCOc1ccc(-c2csc(N)c2C(=O)OC)cc1	83.6	20.7	138.7	1.4	i	0.973	-0.3
COc1ccc(-c2nn(-c3ccccc3)cc2/C=N/n2cnnc2)cc1OC	93.3	25.0	81.4	-0.5	i	0.983	1.1
COc1cc(SC)ccc1C(=O)Nc1cccc(C)n1	102.8	x	x	4.8	i	0.98	x
COc1ccc(N2C(=O)CS/C2=N\C(=S)Nc2ccccc2)cc1	96.7	x	x	x	i	0.94	x
Cc1nn(C)c(C)c1S(=O)(=O)N1CCC(C(=O)NCCC2=CCCCC2)CC1	42.2	x	x	0.8	i	0.88	-2.2
CCCCC(=O)NCCc1ccc(OC)cc1	96.3	36.7	76.6	0.4	i	0.98	0.1
CCOC(=O)c1c(C)[nH]c(C(=O)COC(=O)CN2C(=O)C3CCCCC3C2=O)c1C (configuration not stated)	118.5	14.3	117.9	2.3	i	0.91	-4.4
O/N=C/c1cn(-c2ccccc2)nc1-c1ccc2c(c1)OCCO2	102.2	45.7	105.3	-1.5	i	0.943	-2.2
Cc1c(S(=O)(=O)N2CCc3ccccc3C2)c(=O)n(C)c(=O)n1C	99.7	x	x	13.5	i	1.01	-1.9
COc1cc(OC)cc(C(=O)NC(=S)Nc2nnn(C)n2)c1	98.7	x	x	x	i	1.16	x
New compounds follow:
SMILES	RGS16-Gao HTS	INS promoter inh	INS promoter inh cell count	PKD1 kinase inh	HSV augment	HSV augment primary fold	GALR2 ag
Cc1cc(C(=O)NNC(=S)NC(=O)/C=C/c2ccccc2Cl)n[nH]1	98.9	-21.4	196.6	-4.6	i	0.84	0.6
N#Cc1ccccc1NC(=O)CSc1nnc(-c2ccc(F)cc2)n1-c1ccccc1	102.4	-25.7	53.7	-1.1	x	x	-1.1
CCc1ccc(NC(=O)CSc2ccccn2)cc1	104.5	-104.8	40.1	-1.6	i	0.69	x
CCOC(=O)CS(=O)(=O)c1ccc(C(F)(F)F)cn1	102.4	-9.4	156.4	-1.6	i	0.87	-4.6
CC(C)(C)Nc1c([N+](=O)[O-])c(=O)sc2ccccc12	103.0	0.0	92.4	-0.1	i	0.91	x
COc1ccc2[nH]c3c(NCc4ccco4)ncnc3c2c1	102.6	32.4	181.8	-1.0	i	1.03	-2.4
COc1cc(-c2nnc(NC(=O)c3ccc(S(=O)(=O)N4CCOCC4)cc3)o2)cc(OC)c1OC	98.7	31.6	140.8	1.4	i	1	x
CCCCCCCCSc1nnc2[nH]c(=O)cc(N)n12	100.4	-50.0	200.0	-6.6	i	0.92	x
CCn1c(SCC(=O)OCC(=O)N2c3ccccc3NC(=O)C2(C)C)nnc1-c1ccco1	102.0	x	x	4.4	i	0.97	-0.2
COc1ccc(NC(=O)Nc2ccc3c(c2)CCC3)c(OC)c1	97.5	x	x	5.4	i	0.97	x
O=C1CCCCC1S(=O)(=O)c1ccccc1 (configuration not stated)	98.6	16.7	103.1	-7.2	i	1.03	-0.3
Cc1cc(O)c(-c2n[nH]c3c2C(c2cccc(O)c2)N(Cc2cccnc2)C3=O)cc1Cl (configuration not stated)	115.2	x	x	2.6	i	0.92	-3.3
CNc1nc(N/N=C/c2cc3c(cc2[N+](=O)[O-])OCO3)nc(Nc2ccccc2)n1	96.2	-76.9	134.7	2.8	i	0.64	x
OCCN=C1CCCc2c1[nH]c1ccc(Cl)cc21	100.0	x	x	x	i	0.75	x
COC(=O)c1ccccc1-c1ccc(C(c2c(C)[nH][nH]c2=O)c2c(C)[nH][nH]c2=O)o1	103.8	x	x	3.8	i	1.04	x
Cc1ccc(NC(=O)N2CCCCC2)cc1[N+](=O)[O-]	96.0	x	x	x	i	0.94	x
CC(C)CCN1CCN(Cc2ccc(N3CCNC3=O)cc2)CC1CCO (configuration not stated)	104.0	x	x	3.3	i	0.99	x
O=c1cc(-c2ccc(Cl)cc2)oc(=O)[nH]1	101.7	x	x	x	i	1.12	x
O=c1c2ccccc2n(Cc2ccc(F)cc2)c(=O)n1C1CCCC1	81.9	x	x	-3.2	i	0.96	0.2
O=C(CCc1ccccc1)Nc1ccc(N2CCOCC2)cc1	111.1	x	x	-1.1	i	0.86	-0.1
Nc1ccccc1Oc1ncc(C(F)(F)F)cc1Cl	99.1	9.7	132.9	-5.5	i	0.85	-4.0
CCNC(=O)NC(=O)C(C)OC(=O)CNS(=O)(=O)c1c(Cl)cc(Br)cc1Cl (configuration not stated)	102.7	-42.9	89.0	-5.9	i	0.95	x
O=C(O)CCc1ccc(-c2cccs2)n1CCC(=O)O	98.0	1.3	77.8	-7.1	i	0.7	-0.5
CCCN1C(=O)/C(=C/c2c(N3CCNC(=O)C3CC(=O)OC)nc3c(C)cccn3c2=O)SC1=S (configuration not stated)	96.3	x	x	x	u	x	x
O=C(CCCC(=O)OCC(Cl)=C(Cl)Cl)Nc1ccccc1	69.0	x	x	3.7	i	0.97	-0.9
CNC(=O)COC(=O)/C=C/c1cccs1	104.2	x	x	-11.0	i	1.05	x
O=C(Cc1noc2ccccc12)Nc1ccccn1	102.2	15.4	128.1	-4.3	i	0.97	-1.7
NC(=O)CN1CCN(c2ccccc2F)CC1	105.3	x	x	-5.2	i	1	0.6
COc1ccc(OCc2ccc(C(=O)N3CCOCC3)cc2)cc1	103.8	46.7	124.1	-12.1	i	0.91	-2.5
Cc1cc(C)n(CCN(C)C(=O)c2cc(COc3c(F)cccc3F)on2)n1	101.8	x	x	7.5	i	1.16	x

Structural class, those above with a thiophene ring, fused or not.
SMILES	RGS16-Gao HTS	INS promoter inh	INS promoter inh cell count	PKD1 kinase inh	HSV augment	HSV augment primary fold	GALR2 ag
C=CCn1c(SCC(=O)c2cc(C)n(CCOC)c2C)nc2sc(C)c(C)c2c1=O	111.2	x	x	3.4	i	0.93	-1.8
CCCc1nc2sc3c(c2c(=O)n1NC(=O)CCC(=O)O)CCCC3	99.6	-7.9	167.7	1.4	i	0.91	-1.0
CCOc1ccc(-c2csc(N)c2C(=O)OC)cc1	83.6	20.7	138.7	1.4	i	0.973	-0.3
O=C(O)CCc1ccc(-c2cccs2)n1CCC(=O)O	98.0	1.3	77.8	-7.1	i	0.7	-0.5
CNC(=O)COC(=O)/C=C/c1cccs1	104.2	x	x	-11.0	i	1.05	x

(further entries)
SMILES	RGS16-Gao HTS	INS promoter inh	INS promoter inh cell count	PKD1 kinase inh	HSV augment	HSV augment primary fold	GALR2 ag
Cc1ccc(CNC(=O)c2ccc3c(=O)n(CCCN4CCCC4=O)c(=S)[nH]c3c2)cc1	100.2	18.3	109.2	-3.9	i	0.88	-1.3
Cc1cccc(N2C(=O)SC(N(CC(=O)O)c3cccc(C)c3)C2=O)c1 (configuration not stated)	101.6	x	x	-5.4	i	1.03	-3.1
CC(Sc1ccccc1)C(=O)NN=C1CCCCCC1 (configuration not stated)	99.4	53.5	91.1	-2.7	i	0.8	x
CCOC(=O)CNc1nc(Cl)nc(NC(C)(C)C)n1	109.3	16.7	205.9	-7.4	i	0.96	x
